VACV E9 pol inh: blocks vaccinia virus processive DNA synthesis. AID 493162. 46,000 compounds, 0.94% hits. in vitro processive DNA synthesis, absorbance read-out; active compounds read low; some inactives read as strong as hits. normalized absorbance, % (test concentration not listed);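 active = replicate mean up to 90% and picked by the depositor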;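 note: 100% = median of the test wells of a plate; 100 nL library stock went into each well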
* marks the source's active call; other numbers are inactive results. These rows are one share of the data; the hit share may differ from the screen's.

SMILES | VACV E9 pol inh
Cc1[nH]c(=O)[nH]c(=O)c1S(=O)(=O)N1CCN(c2ccccc2)CC1 | 99
O=C(Nc1ccccc1O)c1cc2cc(Br)ccc2oc1=O | 102
COC(=O)CN(c1cccc2ccccc12)S(C)(=O)=O | 101
O=C(O)CSc1ncnc2ccccc12 | 105
CN=C(Nc1cccc(C(F)(F)F)c1)c1ccncc1 | 88
O=C(c1cc2ccccc2oc1=O)N(Cc1ccc(Cl)cc1)C1CCS(=O)(=O)C1 (stereo not given) | 85
COc1ccccc1CNc1ncnc2nc[nH]c12 | 99
CC1=NCCN1CCNC(=O)Nc1ccc(C(C)(C)C)cc1 | 90
OC(CNCc1ccccc1)Cn1c2c(c3ccccc31)CCCC2 (stereo not given) | 100
O=C(NC1CCS(=O)(=O)C1)c1ccccc1Cl (stereo not given) | 106
Clc1ncc(CN2CCc3ccccc3C2)s1 | 123
CS(=O)(=O)NN1C(=O)c2ccccc2NC12CCCCC2 | 100
CC12CC3CC(C1)CC(C(=O)O)(C3)C2 | 99
CNS(=O)(=O)c1ccc(C)c(-c2nnc3c4ccccc4c(C)nn23)c1 | 99
CCOC(=O)CSc1nc2c(sc(=S)n2-c2ccccc2C)c(=O)n1-c1ccc(F)cc1 | 101
O=C1c2ccccc2C(=O)N1c1cccc(-c2csc(=Nc3ccccc3)n2CCO)c1 | 101
Nc1cc(C(=O)O)ccc1NCC1CCCO1 (stereo not given) | 97
O=C(COC(=O)C1(c2ccccc2F)CCCC1)NCc1ccccc1 | 106
COC(=O)c1c(NC(=O)C(C)C)sc2c1CCC2 | 100
Cc1c(C(=O)NC2CCS(=O)(=O)C2)oc2ccccc12 (stereo not given) | 100
COc1ccc2c(c1)C(C(C#N)C#N)c1c(nc(N)c(C#N)c1N)O2 (stereo not given) | 111
CC(NCc1ccc(C(=O)O)s1)c1ccccc1 (stereo not given) | 93
CCOC(=O)C12CCC(C(=O)O)(CC1)CC2 | 96
O=C(NCC1CCCO1)c1cc2cc(Br)ccc2oc1=O (stereo not given) | 94
CC1(C)CCc2cc(S(=O)(=O)NCc3ccc(S(N)(=O)=O)cc3)ccc2O1 | 100
COc1ccc(CNCc2ccc(N(C)C)cc2)cc1 | 100
O=C(Nc1ccc(-c2cn3c(n2)SCC3)cc1)c1ccc2nonc2c1 | 100
NC(=S)Nc1ccc(S(N)(=O)=O)cc1 | 100
CC1(C)CSC(=NC2CCCCC2)N1 | 96
Cc1cc2cc(CNC(=O)C(C)C)ccc2[nH]1 | 100
O=C(O)CSc1ccc(Br)c2cccc(Cl)c12 | 82
C=CC[n+]1ccc2ccccc2c1 | 100
CN1C(C(=O)NCc2ccccc2)=CC(c2ccco2)=NS1(=O)=O | 100
Cc1ccc(-n2c(=O)c3ccc(C(=O)NCc4ccco4)cc3n(Cc3cccc(C)c3)c2=O)cc1 | 105
CCOC(=O)c1[nH]c2ccccc2c1NC(=O)c1ccc(S(=O)(=O)N2CCCC2)cc1 | 104
Cc1cc(Nc2cccc(C(F)(F)F)c2)nc2ccc(NC(=O)CSc3ccncc3)cc12 | 95
CC(O)c1cc(NC(=O)c2ccccc2)c(=O)oc1/C=C/N(C)C (stereo not given) | 101
CCC1C(=O)N=C(SCC(=O)Nc2ccc(Br)cn2)NC1=O (stereo not given) | 100
COC(=O)Nc1ccc(N=Cc2cccs2)cc1 | 101
COC(=O)c1ccc([C@H]2C(C#N)=C(N)C(C#N)(C#N)C3=CCC(C(C)(C)C)C[C@@H]32)cc1 (stereo not given in full) | 99
O=C(c1cnn2c3c(cnc12)CCCCC3)N1CCCCC1 | 104
O=C(Nc1nc2ccccc2[nH]1)c1cccc(Oc2ccccc2)c1 | 106
NNS(=O)(=O)c1ccc(Br)cc1 | 99
COc1cccc(C2N(Cc3ccccc3)C(=O)C2(F)F)c1OC (stereo not given) | 92
CN(C)c1ccc2nc3c(nc2c1)C(=O)c1ccccc1C3=O | 100
CCN1CCN(S(=O)(=O)c2ccc(Oc3ccccc3)cc2)CC1 | 108
O=C(C1=NNC2C(=O)N(c3ccccc3)C(=O)C12)c1cccnc1 (stereo not given) | 99
CCOC(=O)C1=C(C)NC2=C(C(=O)CC(C)(C)C2)C1c1ccccc1 (stereo not given) | 99
Cn1nc(OC(=O)Nc2ccccc2)cc1C(F)(F)F | 104
O=C(NCc1ccccc1Cl)c1ccc2c(Cl)c3c(nc2c1)CCCC3 | 104
COc1cc(OC)c(NC(=O)N2CCC(CN3CCc4ccccc4C3)CC2)cc1Cl | 98
CCCN(CCC)C(=O)/C=C/c1ccc(OC)c(OC)c1 | 98
COc1ccc(CCN(C)CCC(=O)Nc2c(C)cc(C)cc2C)cc1OC | 99
Cc1cccc(N2CCN(C(=O)COc3ccc(C#N)cc3)CC2)c1C | 105
Cc1ccccc1Nc1c(-c2ccsc2)nc2c[n+](CC(N)=O)ccn12 | 97
Fc1ccc(Sc2c(F)c(F)nc(N3CCNCC3)c2F)cc1 | 100
O=Cc1c2[nH]c3ccccc3c2cc2[nH]c3ccccc3c12 | 100
CCc1c(C)sc(NC(=O)/C=C/c2ccc(F)cc2)c1C(=O)OC | 100
Nc1ccc2c(c1)nc(-c1ccccc1)c1cc(N)ccc12 | 98
O=C(NC1CCCC1)c1cc(-c2ccc(F)cc2)no1 | 101

Following part:
SMILES | VACV E9 pol inh
OCc1ccccc1CN1CCOCC1 | 101
CCc1ccc(Nc2cc(=O)n(C3CCCCC3)c(=O)[nH]2)cc1 | 92
CC1=Nc2cc(C(=O)NCc3cccnc3)ccc2Sc2ccccc21 | 104
CSc1nc2c(sc(=S)n2-c2ccccc2C)c(=O)n1-c1ccccc1C | 91
CCOC(=O)c1ccc(-c2ccc3c(c2)CCC3)nc1C | 111
CCC(C)NC(=O)CC12CC3CC(C1)CC(CC(=O)NC(C)CC)(C3)C2 (stereo not given) | 102
O=C(Nc1cccc(Cl)c1)c1ccc2c(Cl)c3c(nc2c1)CCCC3 | 99
c1cnc2c(CN3CCCC3)cccc2c1 | 101
CC(=O)Nc1ccc2oc(=O)ccc2c1 | 102
O=CNC(Cc1ccccc1)C(=O)O (stereo not given) | 98
Cc1c(CCNC(NC(=O)c2ccc(Cl)cc2)(C(F)(F)F)C(F)(F)F)c2ccccc2n1C | 94
CCN1CC=C(c2c[nH]c3ccccc23)CC1 | 91
CC(C)CCNC(=O)C1c2ccccc2C(=O)N(C)C1c1cn(C)c2ccccc12 (stereo not given) | 90
NC(=O)c1ccccc1NC(=O)c1c(Cl)nc2sccn12 | 107
COC(=O)c1cc(N2C(=O)C3C4C=CC(C)(O4)C3C2=O)ccc1Cl (stereo not given) | 100
Cc1ccc(C2=NN(C(=O)c3ccc(Br)o3)C(c3ccc(C)cc3)C2)cc1 (stereo not given) | 100
Cc1cccc(C)c1OCC(C)N (stereo not given) | 101
CCC(C)(C)c1ccc(OC2CSC2)cc1 | 93
O=C(O)c1cccnc1Nc1ccccc1 | 98
CC(C)(C)c1cc(C(c2ccccn2)N2CCCC2)cc(C(C)(C)C)c1O (stereo not given) | 100

Exported tab-delimited: 21 of the compounds above.
Molecule	VACV E9 pol inh
O=Cc1c2[nH]c3ccccc3c2cc2[nH]c3ccccc3c12	100
CCc1c(C)sc(NC(=O)/C=C/c2ccc(F)cc2)c1C(=O)OC	100
Nc1ccc2c(c1)nc(-c1ccccc1)c1cc(N)ccc12	98
O=C(NC1CCCC1)c1cc(-c2ccc(F)cc2)no1	101
OCc1ccccc1CN1CCOCC1	101
CCc1ccc(Nc2cc(=O)n(C3CCCCC3)c(=O)[nH]2)cc1	92
CC1=Nc2cc(C(=O)NCc3cccnc3)ccc2Sc2ccccc21	104
CSc1nc2c(sc(=S)n2-c2ccccc2C)c(=O)n1-c1ccccc1C	91
CCOC(=O)c1ccc(-c2ccc3c(c2)CCC3)nc1C	111
CCC(C)NC(=O)CC12CC3CC(C1)CC(CC(=O)NC(C)CC)(C3)C2 (stereo not given)	102
O=C(Nc1cccc(Cl)c1)c1ccc2c(Cl)c3c(nc2c1)CCCC3	99
c1cnc2c(CN3CCCC3)cccc2c1	101
CC(=O)Nc1ccc2oc(=O)ccc2c1	102
O=CNC(Cc1ccccc1)C(=O)O (stereo not given)	98
Cc1c(CCNC(NC(=O)c2ccc(Cl)cc2)(C(F)(F)F)C(F)(F)F)c2ccccc2n1C	94
CCN1CC=C(c2c[nH]c3ccccc23)CC1	91
CC(C)CCNC(=O)C1c2ccccc2C(=O)N(C)C1c1cn(C)c2ccccc12 (stereo not given)	90
NC(=O)c1ccccc1NC(=O)c1c(Cl)nc2sccn12	107
COC(=O)c1cc(N2C(=O)C3C4C=CC(C)(O4)C3C2=O)ccc1Cl (stereo not given)	100
Cc1ccc(C2=NN(C(=O)c3ccc(Br)o3)C(c3ccc(C)cc3)C2)cc1 (stereo not given)	100
Cc1cccc(C)c1OCC(C)N (stereo not given)	101

Carrying on.
SMILES | VACV E9 pol inh
CCc1nnc(NC(=O)CC23CC4CC(CC(C4)C2)C3)s1 | 101
OCn1c(=S)sc2ccccc21 | 90
Cn1cc(C(=O)c2cccc(Cl)c2Cl)cc1C(=O)O | 102
O=C(CCN1N=C(c2ccccc2)CCC1=O)NCCc1ccccc1 | 97
C[C@H]1O[C@@H](O[C@H]2[C@@H](O)C[C@H](O[C@H]3[C@@H](O)C[C@H](O[C@H]4CC[C@]5(C)C6C[C@@H](O)[C@]7(C)[C@@H](C8=CC(=O)OC8)CC[C@]7(O)C6CC[C@@H]5C4)O[C@@H]3C)O[C@@H]2C)C[C@H](O)[C@@H]1O (stereo not given in full) | 100
COc1ccc(C2(CNS(=O)(=O)c3ccc(C)cc3)CCOCC2)cc1 | 100
CSC1=NCCN1Cc1ccccc1 | 88
FC(F)(F)Oc1ccc(C2c3ccsc3CCN2Cc2c[nH]c3ccccc23)cc1 (stereo not given) | 93
CCN(CC)C(=O)Oc1nc(-c2ccccn2)nc(COC)c1CC1CC1 | 100
COC(=O)c1ccc(Oc2c(C(F)(F)F)oc3cc(O)ccc3c2=O)cc1 | 100
COC(=O)c1cc(S(=O)(=O)NCC2CCCO2)c[nH]1 (stereo not given) | 107
CCN(CC)CCCNc1ncnc2sc3c(c12)CC(C)CC3 (stereo not given) | 103
CN1N=C(c2ccccc2)CC1=O | 102
Cc1nnc2sc(SCc3ccccc3)nn2c1=O | 88
Cc1ccc(NC(=O)C2CCCN(S(=O)(=O)c3ccc4[nH]c(=O)ccc4c3)C2)nc1 (stereo not given) | 80
CC(NCCN1CCNCC1)c1cc(C(C)(C)C)cc2c1CCC2(C)C (stereo not given) | 99
O=P(O)(c1ccccc1)C1CCCCN1 (stereo not given) | 102
O=C(COC(=O)c1cn(-c2ccccc2)nc1-c1ccccc1)c1ccc(Br)cc1 | 93
CCC(C)(C)c1cnc(NC(C)=O)s1 | 99
COc1ccc2cc3[n+](cc2c1OC)CCc1cc2c(cc1-3)OCO2 | 82*
Cc1noc(C)c1-c1nc(COc2ccc(/C=C(/C#N)S(C)(=O)=O)cc2)no1 | 100
COC(=O)C1=C(NC(=O)c2ccc(S(=O)(=O)N3CCOCC3)cc2)CCS1 | 100
O=C(NCCc1ccccc1)c1nnc(Cc2ccc(F)cc2)o1 | 106
CN(C)c1nc(SCCOC(=O)COc2ccc(Cl)cc2Cl)nc(N(C)C)n1 | 100
C=CCn1c(SC)nc2c(c1=O)C1(CCCCC1)Cc1ccccc1-2 | 100
O=C(Oc1cccc2cccnc12)C1CCCCC1 | 100
c1ccc(C2C3=C(CCCC3)Nc3ncnn32)cc1 (stereo not given) | 105
CCn1c(O)c(/C=c2/c(C)c(C#N)c3nc4ccccc4n3c2=O)n(CC)c1=S | 100
Cc1cc(C(=O)OCC(=O)N2c3ccccc3Sc3ccccc32)c2ccccc2n1 | 101
CCC1CCCCN1C(=O)COc1cccc2c1CCN(C)C2=O (stereo not given) | 100
CCc1ccc(NC(=O)CSc2ccc(-c3ccco3)nn2)cc1 | 97
COc1ccc(-n2nc3c(c2NC(=O)/C=C\c2ccc4c(c2)OCO4)CS(=O)(=O)C3)cc1 | 76
CCc1ccccc1NC(=O)c1ccc2snnc2c1 | 101
CCCCn1c(-c2ccccc2)nn(S(=O)(=O)c2ccc(Br)cc2)c1=O | 100
COc1ccc(NC(=O)Cc2c[nH]c3ccccc23)cc1 | 93
COC(=O)Cc1csc(=Nc2ccccc2)n1-c1ccccc1 | 101
Nc1ncnc2c1nc(Br)n2C1O[C@H]2COP(=O)(O)O[C@@H]2[C@@H]1O (stereo not given in full) | 99
Cc1cc(C)c2c(N)c(-c3nnc(SCc4ccc(Cl)cc4)n3C)sc2n1 | 102
Cc1nn(Cc2ccc(C(=O)n3cc(Cl)cn3)o2)c(C)c1Cl | 98
COC(=O)CN1C(=O)COc2cc(S(=O)(=O)NCc3ccc(Cl)cc3)ccc21 | 99
Cc1onc(-c2c(Cl)cccc2Cl)c1C(=O)N=S(C)(C)=O | 108
CCSCC1COC(c2cccn2Cc2ccc(F)cc2)=N1 (stereo not given) | 106
COc1ccc(-c2nc(CNS(=O)(=O)N(C)C)cs2)cc1 | 86
CCOC(=O)c1c(C)oc2c1c(CN1CCN(C)CC1)c(O)c1ccccc12 | 99
c1ccc2[nH]c(C3CCCCC3)nc2c1 | 95
CCc1ccccc1NC(=S)Nc1ccc(Oc2ccc(Cl)cc2)cc1 | 98
Cc1cc2n(n1)C(c1cccnc1)Nc1ccccc1-2 (stereo not given) | 96
CCOc1ccc(Oc2nc(NCC(C)C)nc(OC)n2)nn1 | 106
C=CCn1c2ccccc2c2nnc(SCCCC(=O)c3ccc(F)cc3)nc21 | 102
COc1cccc(CNc2ccc3c(c2)ncn3C(C)(C)C)c1OC | 100
Cc1ccc(C(=O)CC(C(=O)O)N2CCN(C)CC2)cc1 (stereo not given) | 100

2 records picked at random from the list so far, as already listed:
SMILES | VACV E9 pol inh
c1ccc2[nH]c(C3CCCCC3)nc2c1 | 95
CCSCC1COC(c2cccn2Cc2ccc(F)cc2)=N1 (stereo not given) | 106

Compound activity as filed in PubChem.
